Compound activity as filed in PubChem.
Sfp PPTase inh: qHTS Assay for Inhibitors of Bacillus subtilis Sfp phosphopantetheinyl transferase (PPTase); actives 3.5% (n = 310,000); Potency, µM, without a hit: max response, negative = inhibition, usual class: inhibitors; Biochemical Sfp PPTase activity, qHTS; 4'-phosphopantetheinyl transferase ffp (Bacillus subtilis), Q9F4F7; active means well fitted inhibition curve with a large enough effect; inconclusive means small, poorly fitted or top-dose-only effect, or another doubt; inactive means no such curve, though single readings can be large or run the other way;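 further: the enzyme is Sfp with the accession as filed and its product quenches rhodamine fluorescence; potency means the concentration at half of the fitted maximal effect; 0% = enzyme reaction without inhibitor and -100% = no enzyme wells; top concentration of the series not given in the record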
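Fluorescence-quenching assay with 15 nM Sfp, 5 uM rhodamine-CoA and 12.5 uM BHQ-2-labelled ybbR peptide in pH 7.6 Hepes/MgCl2 buffer. Enzyme was pre-incubated with compound for 15 min at room temperature. Rate was taken from the 30-min fluorescence change (525/598 nm).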
PINK1 expr mod: A Quantitative High throughput Screen to Identify Chemical Modulators of PINK1 Expression. AID 624263, 2012. PINK1 immunofluorescence, high-content cytometry, 24 h. actives 0.2% (n = 410,000). Potency, µM (doses to about 76.6 µM), inactives show top-dose activation (PINK1 increase), usual class: activators; active = well fitted activation curve with a large enough effect; inconclusive = small, poorly fitted or top-dose-only effect; inactive = flat fitted curve, though single readings scatter; cell line not stated here;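 further: potency means the concentration at half of the fitted maximal effect; % of control where 0% means no effect; nearly all actives have a fitted effect of over 65% in size; a mitochondrial uncoupler was the plate control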
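PINK1 protein level read as immunofluorescence by microplate cytometer in a fixed, stained stable cell line after 24 h exposure to five compound concentrations, with CCCP as control.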
TRPML1 agonist: qHTS for Agonists of the Human Mucolipin Transient Receptor Potential 1 (TRPML1); Mucolipin-1 (Homo sapiens), Q9GZU1; TRPML1-expressing cells, Ca2+ dye fluorescence, FDSS; host cell line not named in the record; reference of the full effect not given here; activation, % (concentration not given with the values); actives 0.12% (n = 410,000); AID 624414, 2012; in the data active = activation above about 50%; inconclusive = about 30% to 50%; inactive = below about 30%; further: 0% is about no effect; the text of the record puts the active cut at 80%
Target sequence (Q9GZU1 whole entry, looked up): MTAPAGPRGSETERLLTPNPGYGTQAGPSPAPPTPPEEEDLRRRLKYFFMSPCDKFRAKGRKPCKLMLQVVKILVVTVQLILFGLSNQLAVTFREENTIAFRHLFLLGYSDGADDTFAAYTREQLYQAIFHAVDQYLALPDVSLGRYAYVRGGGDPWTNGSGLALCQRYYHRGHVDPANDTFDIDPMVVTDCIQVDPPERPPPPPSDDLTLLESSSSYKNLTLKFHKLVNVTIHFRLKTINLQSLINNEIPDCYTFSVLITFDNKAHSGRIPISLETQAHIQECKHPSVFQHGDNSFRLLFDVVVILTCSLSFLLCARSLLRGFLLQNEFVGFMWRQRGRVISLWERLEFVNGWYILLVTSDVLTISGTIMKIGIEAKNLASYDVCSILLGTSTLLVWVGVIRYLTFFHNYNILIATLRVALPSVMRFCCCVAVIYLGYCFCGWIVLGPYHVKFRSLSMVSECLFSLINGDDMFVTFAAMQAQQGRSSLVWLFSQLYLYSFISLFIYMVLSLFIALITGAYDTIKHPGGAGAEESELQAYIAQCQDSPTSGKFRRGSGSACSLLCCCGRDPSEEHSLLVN
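Cells: TRPML1-DL, 1X Tet inducer, ~16 h at 37 degrees C/5% CO2. Dye: ABD Ca8 no-wash + quencher, 45-90 min RT. Read: 10 s baseline, compound add, 110 s agonist phase; 54-4 EC80 (4uM final), 110 s antagonist phase.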
ClpP mod: qHTS Assay for Activators of ClpP; purified B. subtilis ClpP, FRET peptide cleavage, 20 min; Potency, µM (titrated, usually from 57.5 µM), inactives show at the highest dose activity change, negative = active; actives 1.9% (n = 340,000); AID 651965, 2013; active = well fitted falling curve with a large enough effect; inconclusive = small, poorly fitted or top-dose-only effect; inactive = no such curve, though single readings can be large or run the other way; further: potency means the concentration at half of the fitted maximal effect; the source files actives as falling curves though it sought activators and does not explain the sign; nearly all actives have a fitted effect of over 65% in size; many hits overshoot -100%
Target sequence (P80244 whole entry, looked up): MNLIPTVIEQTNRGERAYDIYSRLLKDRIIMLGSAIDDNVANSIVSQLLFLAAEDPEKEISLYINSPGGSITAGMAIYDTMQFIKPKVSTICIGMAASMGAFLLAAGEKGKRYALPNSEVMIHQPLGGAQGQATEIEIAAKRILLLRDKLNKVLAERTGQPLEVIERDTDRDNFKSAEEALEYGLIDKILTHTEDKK
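FRET quenching reversal measured ClpP activation: 10 microg/mL B. subtilis ClpP at pH 8 with the FRET-FV decapeptide, read at 430 nm after 320 nm excitation. The 20-min minus 0-min signal was scaled between DMSO/no-enzyme wells and ADEP (5.8 microM final).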
Menin MLL FP FL: qHTS Assay for Inhibitors Targeting the Menin-MLL Interaction in MLL Related Leukemias: Competition With Fluorescein Labeled MLL-derived Peptide; Fluorescence polarization, fluorescein-MLL peptide displacement from menin; FP activity change, % at 61.4 µM; 290,000 tested, under 10 active; inconclusive = falling polarisation curve, or a change in total fluorescence; inactive = total fluorescence flat and polarisation flat or rising; no compound was filed as active; the % refers to the polarisation; negative = inhibition;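 further: % of control where 0% means no effect; inhibitors lower the polarisation; unlabelled MLL peptide was the positive control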
TRPV1 PAM: HTS Assay for Compounds that Act as Potentiators of the Vanilloid Receptor 1; potentiation, % at 8.33 µM; Transient receptor potential cation channel subfamily V member 1 (Homo sapiens), Q8NER1; AID 540277, 2011; actives 0.02% (n = 320,000); TRPV1-expressing cells, Fluo-8 calcium influx, capsaicin EC20 potentiation; host cell line not named in the record; control for the full effect not named in the record; active means potentiation above 80%; inconclusive means 30% to 80%; inactive means below 30%; further: 0% is about no effect
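Fluo-8 calcium influx in TRPV1-expressing cells, kinetic read (ex 480/em 520 nm). Compound added and read 3 min for agonist activity, followed by capsaicin at EC20 final and 2 min further read for enhancement.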
TRPML1 blocker: qHTS for Inhibitors of the Human Mucolipin Transient Receptor Potential 1 (TRPML1) | TRPML1-inducible cells, Ca2+ dye fluorescence, FDSS; active compounds read low; inhibition of EC80 agonist-evoked calcium signal | AID 624415, 2012 | actives 0.02% (n = 390,000) | Mucolipin-1 (Homo sapiens), Q9GZU1 | activity change, negative = inhibition, % (no concentration beside the values); in the data active means activity change below about -50%; inconclusive means about -30% to -50%; inactive means above about -30%;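 further: stimulus is agonist 54-4 at its EC80 concentration; on the % scale 0 is the no-effect control and ±100 the full control effect; compound concentration not given in the record; the text of the record puts the active cut at -80%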
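Tet-induced TRPML1-DL cells loaded with Ca8 no-wash calcium dye were read kinetically on FDSS. Compound addition was followed by EC80 agonist 54-4 (4 uM final); inhibition was read over 110 s.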
* = called active by the depositor; ? = inconclusive; . = no result given; & = joins results of further samples; [ ] = dose if it differs, or a comment.

SMILES	Sfp PPTase inh	PINK1 expr mod	TRPML1 agonist	ClpP mod	Menin MLL FP FL	TRPV1 PAM	TRPML1 blocker
CSc1nnc(C(C)(C)C)c(=O)n1/N=C/c1c(O)ccc2ccccc12	22%	1.5%	2.5	.	4.3	7	73
COc1cc(OC)c(N(C)S(=O)(=O)c2cccc(C(=O)NC(C)C3CC4CCC3C4)c2)cc1Cl (configuration not stated)	20%	18%	0.3	.	2.8	-3	29
O=C(CN1C(=O)CCS(=O)(=O)c2ccccc21)Nc1ccc(F)cc1	2%	-1.0%	-0.7	-3.0%	-4.6	9	-22
Nc1nc(CCOc2ccc(F)cc2)cs1	15%	-2.3%	1.1	.	1.5	2	3
COc1ccc(Cl)cc1C(=O)NNC(=O)COC(=O)CC(NC(C)=O)c1ccccc1 (configuration not stated)	.	-1.9%	0.6	-2.3%	.	26	0
CCCCn1c(N)c(-c2nc3ccccc3o2)c2c([N+](=O)[O-])nn(CC)c(=O)c21	3%	13%	0.5	-0.7%	-2.2	8	15
COc1ccc(S(=O)(=O)Nc2cc(C(C)C)c(O)cc2C)cc1	7%	-0.8%	1.4	3.0%	0.8	-8	17
CC(=O)c1c(C)oc2c1cc(NS(=O)(=O)c1ccc(Br)cc1)c1ccccc12	.	13%	19	2.5%	.	.	4
O=S(=O)(c1ccccc1)N1CCC[C@@]2(CCN(Cc3ccccc3)C2)C1	13%	0.5%	.	.	-7.6	.	.
COC(=O)CCCn1cc(CN2CC(N3CCN(Cc4ccccc4F)CC3)CS2(=O)=O)nn1 (configuration not stated)	.	-0.3%	-0.8	1.3%	.	.	.
Cc1ccnc(NC(=O)CS(=O)(=O)c2ccccc2)c1	9%	2.2%	0.7	.	-0.6	27	-2
O=C(COC(=O)CNC(=O)C1CCCCC1)Nc1ccccc1	.	-0.6%	-0.6	.	.	.	-4
CCN(CC(=O)Nc1ccc(NC(C)=O)cc1)C(=O)CSCC(=O)Nc1ccc(C)cc1	.	1.0%	0.0	0.8%	.	1	0
COc1ccc(C(CNC(=O)c2ccc(S(=O)(=O)Nc3ccccc3F)cc2)N(C)C)cc1 (configuration not stated)	-10%	1.0%	-0.2	1.2%	.	-10	-2
O=C(NC(=O)c1ccccc1)Nc1ccccc1	10%	5.2%	-0.3	-1.9%	-28	3	11
Cn1c(=O)oc2cc(S(=O)(=O)Nc3ccc(F)cc3)ccc21	9%	0.5%	-0.3	-0.1%	1.2	21	5
Nc1ccc(S(=O)(=O)NCC(=O)OCCOc2ccccc2)cc1[N+](=O)[O-]	.	1.7%	0.3	.	.	-10	3
CC(C(=O)OCC(=O)Nc1ncc(Cl)cc1Cl)N1C(=O)c2ccccc2C1=O (configuration not stated)	25%	-0.6%	1.0	0.0%	-0.6	-1	43
O=C(CSc1nc(Nc2ccc(F)cc2)c2ccccc2n1)c1ccc(F)cc1	.	8.7%	0.7	-20%	.	.	-24
Cc1[nH]c2ccccc2c1/C=N/NC(=O)c1cccc([N+](=O)[O-])c1	-1%	4.5%&0.5%	-0.3&-0.1	-0.3%	1.9	-3	-1
CC1CCN(S(=O)(=O)c2ccc(C(=O)N(C)C3CCS(=O)(=O)C3)cc2)CC1 (configuration not stated)	.	1.3%	0.3	1.0%	.	3	0
Cc1ccc(NC(=O)c2ccc(C)c(NC3=NC4CS(=O)(=O)CC4S3)c2)cc1C (configuration not stated)	22%	1.1%	-0.4	-0.3%	6.5	-18	10
Cc1cc(C)c(S(=O)(=O)NCC(CCC(=O)O)C(F)(F)F)c(C)c1 (configuration not stated)	0%	2.3%	-0.5	0.3%	-3.9	3	3
C=CCOc1ccc(/C(O)=C2/C(=O)C(=O)N(CCCn3ccnc3)C2c2cccs2)cc1 (configuration not stated)	0%	2.4%	0.4	-1.0%	-0.7	-6	22
COc1ccc(C(=O)NC(C)c2nccs2)cc1OC1CCN(C(C)C)CC1 (configuration not stated)	12%	-0.8%	-0.3	-1.5%	.	?	14
CN(CCC#N)C(=O)COC(=O)[C@H](Cc1ccccc1)N1C(=O)c2ccccc2C1=O	-10%	-0.7%	.	-0.4%	-1.6	26	.
COc1ccc(CNC(=O)O[C@H]2Cn3c(=O)ccc(=O)n3[C@@H]3CN(S(=O)(=O)c4ccc(C)cc4)C[C@]23O)cc1OC	.	0.6%	0.5	-1.8%	.	.	-15
O=C(Cn1c(=O)oc2ccccc21)NCc1ccc(Cl)cc1	.	2.6%	1.8	0.4%	.	.	-10
Cc1cn2c(=O)cc(COC(=O)c3ccc(NC(=O)COc4ccc(C)c(C)c4)cc3)nc2s1	.	-0.1%	1.8	1.4%	.	.	8
Cc1cc2c(n1-c1ccc(C(=O)NCc3ccc(OC(C)C)cc3)cc1)CCCC2	.	-0.6%	0.4	-2.4%	.	.	-13
COc1cc2c(cc1OC)C1(Nc3c-2c(-c2ccccc2)nn3-c2ccccc2)C(=O)Nc2ccccc21 (configuration not stated)	6%	15%	0.9	1.2%	0.0	-8	10
COc1cccc(/C=C/C(=O)OCC(=O)NC2CCCC2)c1	.	-0.4%	-0.4	3.9%	.	.	7
COc1ccc(N2CCN(CC(=O)NCc3ccccc3)CC2)cc1	-2%	1.4%	-0.5	-4.6%	-2.4	13	16
CC(=O)c1ccc(C(=O)N2CCC(n3nccc3NC(=O)C3CC3)CC2)cc1	15%	-0.5%	0.0	0.8%	4.1	-6	21
CCN(CC(=O)Nc1ccc(OC)cc1)C(=O)c1ccc(N2C(=O)CCC2=O)cc1	.	0.1%	0.0	-0.5%	.	7	-8
CCn1c(SCC(=O)N/N=C/C=C/c2ccco2)nc2ccccc21	45µM*	1.5%	1.6	-5.6%	?	24	1
Cc1cccc(C2=NN(c3ccccc3)[C@@H](C(=O)N3CCOC3=O)[C@@H]2C)c1	7%	1.5%	-0.6	2.2%	3.8[94.6 µM]	.	24
COc1ccc(F)c(CN2CCC(N3CCC(C(=O)N4CCOCC4)CC3)CC2)c1	20%	-0.6%	0.1	-0.8%	-6.9	0	14
CC(C)(C)OC(=O)C[C@@H]1C/C=C\C[C@H](CC(=O)N(CCO)Cc2ccccc2)C(=O)N[C@@H](c2ccccc2)COC1=O	.	1.6%	-1.0	0.2%	.	.	-7
COc1ccc(-c2ccc(C3C4C=CCC(C)C4C(=O)N3Cc3ccccc3)c(F)c2)cc1C (configuration not stated)	6%	.	0.7	.	-0.2	.	82
CCOC(=O)C1CCCN(c2nnnn2-c2ccccc2)C1 (configuration not stated)	10%	0.1%	0.0	-0.8%	-0.8	-4	-16
O=C(NNS(=O)(=O)c1ccc(F)cc1)C1CCCCC1	-4%	-2.7%	1.0	.	-0.7	-3	19
CCN(CC)S(=O)(=O)c1cccc(NC(=O)/C=C/c2cccc([N+](=O)[O-])c2)c1	-17%	9.0%	1.5	0.8%	2.7	0	2
Cc1ccnc(NS(=O)(=O)c2ccc(NC(=O)c3ccccc3F)cc2)n1	3%	-0.4%	0.5	-1.6%	-1.7	?	2
CC(C)CNC(=O)C1(C)CCCN1C(=O)c1c(Cl)cccc1Cl (configuration not stated)	.	0.8%	-0.7	-2.0%	.	.	.

In the list so far, 2 contain two or more sulfur atoms:
SMILES	Sfp PPTase inh	PINK1 expr mod	TRPML1 agonist	ClpP mod	Menin MLL FP FL	TRPV1 PAM	TRPML1 blocker
CC1CCN(S(=O)(=O)c2ccc(C(=O)N(C)C3CCS(=O)(=O)C3)cc2)CC1 (configuration not stated)	.	1.3%	0.3	1.0%	.	3	0
Cc1ccc(NC(=O)c2ccc(C)c(NC3=NC4CS(=O)(=O)CC4S3)c2)cc1C (configuration not stated)	22%	1.1%	-0.4	-0.3%	6.5	-18	10

Some values from the entries so far:
Reading of COc1cccc(/C=C/C(=O)OCC(=O)NC2CCCC2)c1 under TRPML1 blocker: 7
Reading of O=C(NNS(=O)(=O)c1ccc(F)cc1)C1CCCCC1 under PINK1 expr mod: -2.7%
Reading of COc1cc2c(cc1OC)C1(Nc3c-2c(-c2ccccc2)nn3-c2ccccc2)C(=O)Nc2ccccc21 (configuration not stated) under TRPML1 blocker: 10

Further records follow.
SMILES	Sfp PPTase inh	PINK1 expr mod	TRPML1 agonist	ClpP mod	Menin MLL FP FL	TRPV1 PAM	TRPML1 blocker
Cc1ccc(-c2c(C(=O)N/N=C/c3ccsc3)nnn2-c2nonc2N)cc1	10%	-0.6%	1.1	-2.4%	-1.2	-3	7
CC(C)(C)C(=O)N1N=C(c2cccc(NS(C)(=O)=O)c2)CC1c1cccs1 (configuration not stated)	-5%	-0.6%	0.0	-9.3%	3.8	1	15
COc1ccc(NC(=O)N(C)C[C@H]2OCCCC[C@H](C)Oc3ccc(NC(=O)Nc4ccc5c(c4)OCO5)cc3C(=O)N([C@@H](C)CO)C[C@@H]2C)cc1	.	0.6%	0.3	-9.1%	.	.	-5
COc1cc(NC(=O)C2CC(c3ccccc3Cl)=NO2)cc(OC)c1OC (configuration not stated)	7%	3.7%	0.7	2.8%	1.1	11	9
COc1ccccc1/C=C1/SC(=S)N(CCC(=O)Nc2cccnc2)C1=O	17%	6.8%	-0.3	2.0%	.	-9	19
Cc1c(C(=O)Nc2cccc(F)c2)sc2nc(-c3cc4ccccc4oc3=O)[nH]c(=O)c12	.	19%	-0.1	0.3%	.	.	-1
CS(=O)(=O)N1CCC(C(=O)NCc2ccccc2)CC1	14%	-2.0%	-0.3	-0.5%	1.3	14	?
O=C(CCS(=O)(=O)c1cccc2nsnc12)N1CCN(Cc2ccc3c(c2)OCO3)CC1	1%	-2.2%	-1.2	-1.6%	-0.9	0	7
COc1cccc(N2CCN(Cc3nc(N)nc(N4CCCc5ccccc54)n3)CC2)c1	3%	-0.1%	0.9	-3.0%	-0.6	-3	15
CC(C)c1cc(CNC(=O)c2ccc(OC3CCN(Cc4ccccn4)CC3)cc2)on1	2%	0.4%	0.0	0.0%	.	-11	-4
Cc1ccccc1NC(=S)NCC1CCC(CNC(=S)Nc2ccccc2C)CC1 (configuration not stated)	-15%	1.1%	-0.1	.	2.8	15	1
